# VDR inh: Inhibitors of the vitamin D receptor (VDR): qHTS. VDR-SRC2-3 peptide fluorescence polarization, 2 h. Potency, µM, for the others: max response, negative = inhibition, usual class: inhibitors. Vitamin D3 receptor (Homo sapiens), P11473. 400,000 compounds, 0.93% hits; active means well fitted inhibition curve with a large enough effect; inconclusive means small, poorly fitted or top-dose-only effect, or another doubt; inactive means no such curve, though single readings can be large or run the other way; further: series mostly up to about 120 µM
# Target sequence (P11473 whole entry, looked up): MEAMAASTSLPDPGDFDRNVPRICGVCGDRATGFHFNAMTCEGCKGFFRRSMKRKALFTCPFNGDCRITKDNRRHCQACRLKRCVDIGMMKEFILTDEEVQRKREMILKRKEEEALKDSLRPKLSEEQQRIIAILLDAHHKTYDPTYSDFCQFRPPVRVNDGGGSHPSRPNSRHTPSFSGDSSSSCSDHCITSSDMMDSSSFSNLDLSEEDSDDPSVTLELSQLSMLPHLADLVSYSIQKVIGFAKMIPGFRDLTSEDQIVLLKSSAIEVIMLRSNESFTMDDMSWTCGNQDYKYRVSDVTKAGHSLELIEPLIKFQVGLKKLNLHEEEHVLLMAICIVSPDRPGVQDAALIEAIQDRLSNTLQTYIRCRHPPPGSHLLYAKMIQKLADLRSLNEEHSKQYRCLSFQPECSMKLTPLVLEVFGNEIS
#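 VDR–SRC2-3 interaction, FP format. Cmpds 23 nl via pintool, brief spin, 2 h ambient incubation.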
# * hit, by the source's call; ? = inconclusive; & = joins results of further samples; [ ] = dose if it differs, or a comment. On the % scale 0 is the no-effect control and ±100 the full control effect; potency means the concentration at half of the fitted maximal effect. Not all compounds are listed; rates above refer to the full screens.
SMILES	VDR inh
Cn1c(=O)n(CC(=O)O)c(=O)c2c1nc1n2CCCN1c1ccc(Cl)cc1	8%
CCCN(CCC)CCNC(=O)Cn1cnc2sc(C)c(S(=O)(=O)N3CCN(c4ccccc4OC)CC3)c2c1=O	-6%
CC(C)(C)C(=O)NC(Nc1cccc2cccnc12)C(Cl)(Cl)Cl (stereo unspecified)	21%
C=CCn1c(-c2cccn(Cc3cccc(Cl)c3)c2=O)n[nH]c1=S	-27%
O=C(CSc1nc2ccccc2c(=O)n1-c1ccccc1)c1cccc([N+](=O)[O-])c1	-4%
COc1ccccc1C(=O)NCCNC(=O)c1ccc(C)nc1	1%
O=C(Nc1ccc2c(c1)CN(Cc1ccc(CO)o1)CC2)c1ccc(C(F)(F)F)cc1	-11%
CN(C)S(=O)(=O)c1cccc(NC(=O)C2Cc3ccccc3CN2C(=O)c2ccccc2)c1 (stereo unspecified)	-5%
CCOC(=O)c1nc(Nc2ccccc2CC)c2ccccc2n1	-13%
COc1ccc(N2CCN(C(=S)Nc3cc(C)cc(C)c3)CC2)cc1	-3%
O=C(O)c1ncc(-c2ccccc2)cn1	-12%
CC1CCc2cc(F)cc3c(O)c(C(=O)NCC4CCCO4)c(=O)n1c23 (stereo unspecified)	10%
Nc1nc(-c2ccccc2)nn1C(=O)Cc1ccccc1	-2%
Cn1c(SCC(=O)NC2CCCCCC2)nnc1-c1cccs1	2%
CNC(=O)N(O)C1N(/N=C/c2cccnc2)C(=S)SC1(C)C (stereo unspecified)	-3%
O=C(CNC(=O)c1ccc(OC(F)F)cc1)NCC1(N2CCOCC2)CCCCC1	5%
CC(=O)c1cc2cc(O)ccc2o1	-6%
CC(=O)c1ccc(NC(=O)c2nc3nc(C)cc(C(F)F)n3n2)cc1	-5%
CCOc1ccc(NC(=O)CCCNC(=O)Cn2cnc3sc(C)c(C)c3c2=O)cc1	-4%
O=C(CCC1CCCCC1)Nc1cccnc1	2%
O=C1CC(=O)Nc2cc(S(=O)(=O)NCc3cccs3)ccc2N1	8%
COc1ccc(C(=O)Nc2sc3c(c2C(N)=O)CCCC3)cc1OC	1%
Cc1cccn2c(=O)c3cc(C(=O)Nc4ccc(Cl)c(Cl)c4)sc3nc12	1%
CN1CCN(C(=O)c2cccn(Cc3c(Cl)cccc3Cl)c2=O)CC1	-21%
Cc1cc(C)n(CCC(=O)N/N=C/c2ccccc2O)n1	-17%
O=Cc1c(N2CCN(c3cccc(Cl)c3)CC2)nc2ccccn2c1=O	3%
Clc1ccc(-n2cc(COCc3ccccc3)nn2)cc1	-9%
CC(=O)CSc1nc2ccccc2o1	-1%
CSC(=NS(=O)(=O)c1ccc(C)cc1)SC	13%
COC(=O)c1c(NC(=O)Cn2nc(C(F)F)cc2C(F)F)sc(C)c1C	-15%
Cc1cc(C(C)(C)C)cc(C)c1N	-4%
CNC(=S)N/N=C/c1cn(CCOc2cccc(OC)c2)c2ccccc12	-13%

# Structural class: those above containing a furan ring, fused or not (two)
SMILES	VDR inh
O=C(Nc1ccc2c(c1)CN(Cc1ccc(CO)o1)CC2)c1ccc(C(F)(F)F)cc1	-11%
CC(=O)c1cc2cc(O)ccc2o1	-6%

# Following part.
SMILES	VDR inh
CCOCCCNC(=O)C(c1ccc(OC)cc1)N(Cc1cccs1)C(=O)CNC(C)=O (stereo unspecified)	6%&5%
Cc1cccc(CSCc2ccc(C(=O)NC(C)C)o2)c1	5%
CC(=O)Nc1ccc(NC(=O)C2CCCN2C(=O)NCc2ccccc2)cc1 (stereo unspecified)	-1%
COc1ccc(-n2c(CNC(=O)c3ccc(S(=O)(=O)N4CCCC4)cc3)n[nH]c2=S)cc1	-5%
CC(C)OC(=O)/C(=C\c1ccccc1)NC(=O)c1ccccc1	10%
CSc1cccc(N2CC(C(=O)Nc3cccc(S(=O)(=O)N4CCCC4)c3)CC2=O)c1 (stereo unspecified)	-2%
CC(Sc1ccc(S(=O)(=O)N2CCN(C)CC2)cn1)C(=O)NC1(C#N)CCCCC1 (stereo unspecified)	13%
Cc1ccc(-c2nn(-c3ccccc3)cc2C(=O)Nc2ccc(C)c(S(=O)(=O)N3CCOCC3)c2)cc1	-4%

# Part of the list above, with each value named.
> CC(=O)Nc1ccc(NC(=O)C2CCCN2C(=O)NCc2ccccc2)cc1 (stereo unspecified)
  VDR inh: -1%

> COc1ccc(-n2c(CNC(=O)c3ccc(S(=O)(=O)N4CCCC4)cc3)n[nH]c2=S)cc1
  VDR inh: -5%

> CC(C)OC(=O)/C(=C\c1ccccc1)NC(=O)c1ccccc1
  VDR inh: 10%

# Following part.
SMILES	VDR inh
Cc1cccc2c(=O)n3c(cc12)-c1[nH]c2ccccc2c1CC3	-26%
Cc1c(C(=O)NC2CCCCC2)oc2c1C(=O)CC(C)(C)C2	2%
CCc1ccc(N2CCN(C(=O)N3CCOCC3)CC2)cc1	19%
CCCN(CC(=O)Nc1ccccc1OC)C(=O)c1cc(-c2ccccc2)nn1-c1ccccc1	1%
COc1ccc(-n2c(=O)c(C)nc3cnc(Nc4ccccc4)nc32)cc1	6%
CN(C)c1ccc(NC(=O)CSc2n[nH]c(-c3ccco3)n2)cc1	-24%
COc1ccc(-c2nc3c(c(SCC(=O)Nc4cccc(O)c4)n2)Cc2c(CO)cnc(C)c2O3)cc1	-17%&-5%
CCCCN(C(=O)c1cccc(S(=O)(=O)N(CC)c2ccccc2)c1)c1c(N)n(CC(C)C)c(=O)[nH]c1=O	-1%
C/C(Cn1nnc([N+](=O)[O-])n1)=N\NC(=O)c1ccc(Cl)c(Cl)c1	6%
O=C(CCCCC(=O)OC1CCCCC1)OC1CCCCC1	27%
O=C(Cc1c(C(=O)O)[nH]c2ccccc12)NCCN1CCN(c2cccc(Cl)c2)CC1	2%
CCOc1ccc(S(=O)(=O)N(CC(=O)O)c2ccc(C)cc2)cc1	1%
O=S(=O)(NC1c2cccc3cccc(c23)C1Sc1ncccn1)c1ccc(Cl)cc1 (stereo unspecified)	9%
O=C(O)C1C2CC3OC(=O)C1C3C2 (stereo unspecified)	18%
O=C(O)c1cccc(N2CCCC2)c1	-4%
Cc1ccc(N(C)C(=O)N2CCN(S(=O)(=O)c3ccc(C)cc3)CC2)cc1	0%

# (continued)
mol	VDR inh
CCc1nc2ccccc2[nH]c1=O	-1%
CC(C)CN(CCCNC(=O)CC1Oc2ccccc2NC1=O)CC(C)C (stereo unspecified)	16%
CC(C)CCCN1CCN=C1N(C)C	-18%
Cc1ccc(C)c(CNC(=O)Nc2ccccc2)c1	7%
CC[C@H]1OC(=O)[C@H](C)C(=O)[C@H](C)[C@@H](OC2O[C@H](C)C[C@H](N(C)C)[C@@H]2O)[C@@](C)(OC)C[C@@H](C)C(=O)[C@@H](C)C2N(CCCCn3cnc(-c4cccnc4)c3)C(=O)O[C@@]21C (stereo partly specified)	-4%
O=C(c1ccc(S(=O)(=O)Cc2ccccc2F)c([N+](=O)[O-])c1)N1CCCC1	-9%
CCC1C(=O)NCCN1C(=O)c1ccccc1OC1CCN(S(C)(=O)=O)CC1 (stereo unspecified)	9%
O=C(CC1N=C2c3ccccc3N=C(SCc3cccc(F)c3)N2C1=O)NC1CCCCC1 (stereo unspecified)	16%
CCc1cccc2c1NC(=O)C21OCCO1	21%
O=C(Nc1cc(C(F)(F)F)ccc1Cl)c1cccc(N2C(=O)CCC2=O)c1	0%
CC1CCc2sc(C(=O)Nc3nnc(SCc4ccc(F)cc4)s3)cc2C1 (stereo unspecified)	9%
OCCNc1cc(Cl)ncn1	-7%
CCOc1ccc(NC(=O)c2ccc(F)c(S(=O)(=O)N(CC)Cc3ccccc3)c2)cc1	5%
Cc1ccc(-c2nc(S(=O)(=O)c3ccc(C)cc3)c(SCC(=O)Nc3ccc(F)cc3)o2)cc1	1%
COc1ccc(N2CCN(C(=O)c3ccc(NS(=O)(=O)c4ccc(F)c(F)c4)cc3)CC2)cc1	-1%
COc1ccccc1CNC(=O)C1Cc2cc(S(=O)(=O)N3CCCCC3)ccc2N1C(C)=O (stereo unspecified)	5%
O=C(C1CC(c2ccccc2O)=NO1)N1CCc2ccccc2C1 (stereo unspecified)	16%
O=C(NC(c1ccccc1)c1ccccn1)c1cccc([N+](=O)[O-])c1 (stereo unspecified)	3%
COc1ccc(NC(C)=O)cc1NC(=O)CN1CCN(CC(=O)Nc2ccccc2Cl)CC1	6%
COC(=O)Cc1ccc(NC(=S)NCc2cccc(OC)c2)cc1	-29%
COc1ccc(NC(=O)Cn2nnc(C(=O)NCCc3ccccc3)c2N)c(OC)c1	2%
COc1ccc(CNCc2ccc(F)cc2)c(OC)c1	3%
Cn1cc(Br)c(C(=O)N/N=C/c2cc3c(cc2Cl)OCO3)n1	?
C(=N\N1CCN(Cc2ccccc2)CC1)/c1ccccc1	-4%
CC(C)NC(=O)c1c(O)c2ccccc2[nH]c1=O	-14%
NS(=O)(=O)c1ccc(CCNC(=O)COC(=O)CC(c2ccccc2)c2ccccc2)cc1	10%
C=CCCC(=O)N1CCC(n2nccc2NC(=O)CCCc2ccccc2)CC1	-16%
Cn1nc(C(F)(F)F)c2cc(C(=O)N3CCOCC3)sc21	-5%
O=C(Nc1ccc(C(=O)c2ccccc2)cc1)c1ccccc1	9%
NC(=O)c1cccn1Cc1ccccc1Cl	-4%
O=C(NCCc1nc2ccccc2n1CCCOc1ccccc1)C1CCCCC1	-10%
CCOC(=O)c1c(C)[nH]c(C)c1S(=O)(=O)N1CCCCC1	4%
CC1CCCC(C)N1C(=O)COC(=O)c1cc(-c2cccs2)nn1-c1ccccc1 (stereo unspecified)	-26%
Cc1ccc([N+](=O)[O-])cc1-c1ccc(/C=C(\C#N)c2[nH]nc(N)c2C#N)o1	-3%
O=C(CSc1ccc(F)cc1)Nc1ccc(C2SCCS2)cc1	14%
Cc1cc(NCC2CCCO2)n2c(nc3ccccc32)c1C#N (stereo unspecified)	-6%
O=C(NC12CC3CC(CC(C3)C1)C2)N1CC2Cc3cccc(=O)n3C(C2)C1 (stereo unspecified)	-12%
Cc1ccc(-n2nnnc2SCC(=O)N2CCNC2=O)cc1C	0%
O=C(CSc1nc2ccccc2c(=O)[nH]1)c1ccccc1	14%
CC(C)c1ccc2occ(CC(=O)N(Cc3ccc(F)cc3)C3CCS(=O)(=O)C3)c2c1 (stereo unspecified)	9%
Cc1noc(C)c1C(=O)N(C)Cc1ccccc1	14%
COC(=O)N/N=C/c1ccc(Oc2ccccc2)cc1	3%
COc1ccc(C(C(=O)NC2CCCC2)N(Cc2ccc(C)cc2)C(=O)c2ccn[nH]2)cc1OC (stereo unspecified)	1%
CCN(CC)C(=O)Oc1ccc2c(c1)O/C(=C\c1ccco1)C2=O	14%
CC(C)(C)OC(=O)NCCCC1=CC2=CC(=O)C(C)(OC(=O)c3cnc4ccccc4n3)C(=O)C2=CO1 (stereo unspecified)	-24%
CN(C)S(=O)(=O)c1cccc(C(=O)Nc2ccc(C(=O)Nc3cccc(S(N)(=O)=O)c3)cc2)c1	10%
Cc1cc(NS(=O)(=O)c2cccc([N+](=O)[O-])c2)no1	15%
Cc1ccc(N(CC(=O)O)S(C)(=O)=O)cc1	12%

# Single entries from the list:
# VDR inh, CC(C)(C)OC(=O)NCCCC1=CC2=CC(=O)C(C)(OC(=O)c3cnc4ccccc4n3)C(=O)C2=CO1 (stereo unspecified) reads -24%
# VDR inh, COc1ccc(C(C(=O)NC2CCCC2)N(Cc2ccc(C)cc2)C(=O)c2ccn[nH]2)cc1OC (stereo unspecified) reads 1%
# VDR inh, Cc1noc(C)c1C(=O)N(C)Cc1ccccc1 reads 14%
# VDR inh, COC(=O)N/N=C/c1ccc(Oc2ccccc2)cc1 reads 3%
# VDR inh, CN(C)S(=O)(=O)c1cccc(C(=O)Nc2ccc(C(=O)Nc3cccc(S(N)(=O)=O)c3)cc2)c1 reads 10%
# VDR inh, CCN(CC)C(=O)Oc1ccc2c(c1)O/C(=C\c1ccco1)C2=O reads 14%

# (next part)
mol	VDR inh
O=C(O)CCCc1nc(-c2ccc(Cl)cc2)no1	5%
O=C(N/N=C/c1ccc([N+](=O)[O-])o1)C1CC1	4%
COc1ccc(-c2nc(CS(=O)CC(=O)NCc3cccnc3)c(C)o2)cc1 (stereo unspecified)	-23%
CN(Cc1nccn1C)C(=O)CC1C(=O)NCCN1CC(c1ccccc1)c1ccccc1 (stereo unspecified)	-6%
COc1ccc(-c2nnc(SCC(=O)N(C)Cc3ccccc3)o2)cc1OC	26%
Cc1ccc(SCCC(=O)NCc2ccco2)cc1	1%
S=c1[nH]nc(CSc2nc3ccccc3s2)n1C1CCCCC1	-19%
CC(Nc1oc(-c2ccccc2)nc1-c1ccccc1)c1ccccc1 (stereo unspecified)	?
COc1ccc(CNCCCn2cnc(C(=O)Nc3ccc(C)c(C)c3)n2)cc1	1%
CCN(Cc1ccccc1)C(=O)Cn1cc2c(n1)CCCC2	6%
O=C1CC(c2ccc(Cl)c([N+](=O)[O-])c2)c2ccc3ccccc3c2N1 (stereo unspecified)	-5%
COC(=O)c1ccc(Cl)cc1NC(=O)N1CCCn2nc(C)cc21	11%
CCOC(=O)C=C1CCN(c2ncc(C(F)(F)F)cc2Cl)CC1	-4%
Cc1ccc(S(=O)(=O)N(C)c2ccc(C(=O)NCC3CCCO3)cc2)cc1 (stereo unspecified)	-14%
CC(=O)c1[nH]c(C)c(C(=O)N2CCCC(Nc3ccc(C(C)C)cc3)C2)c1C (stereo unspecified)	0%
COc1cc2nc(N(C)C)nc(N)c2cc1OC	15%
CCN(C(=O)CN1CCc2ccccc21)c1c(N)n(Cc2ccccc2)c(=O)[nH]c1=O	-19%
COc1cc2c(cc1NC(=O)C(Cl)Cl)-c1ccc(NC(=O)C(Cl)Cl)cc1C2	2%
O=C(NCCN1CCOCC1)c1ccc2c(c1)N(Cc1ccccc1)C(=O)c1ccccc1S2	-2%
CCCC(=O)Nc1ccc(C(=O)COC(=O)c2cc(C)oc2C)cc1	43%[activator]
Cc1oc(C(N)=O)nc1-c1ccccc1	0%

# Screens deposited in PubChem BioAssay by National Center for Advancing Translational Sciences (NCATS).
